Anthrax LT inh: qHTS Assay for Anthrax Lethal Toxin Internalization; Cells, anthrax lethal toxin internalization, FRET ratio (460/530); Potency, µM (series often up to 40 µM), inactives show at the highest dose activity change, negative = inhibition, hits mostly inhibitors; 0.67% of 70,000 active; AID 912, 2007; active = well fitted falling ratio curve with the 530 nm signal flat; inconclusive = other ratio curves, or a change in one channel alone; inactive = flat curves in the ratio and both channels; the % refers to the ratio; further: on the % scale 0 is the no-effect control and ±100 the full control effect; nearly all actives have a fitted effect of over 50% in size; tested in ME-180 cells; beta-lactamase reporter
SmPrx2 inh: Schistosoma Mansoni Peroxiredoxins (Prx2); S. mansoni Prx2 activity coupled to TGR/GSH (TGR is thioredoxin glutathione reductase), NADPH fluorescence loss, qHTS; some inactives read as strong as hits; 0.07% of 65,000 active; Schistosoma mansoni peroxiredoxin 2 (Prx2); AID 448, 2006; Potency, µM; active means full or partial inhibition curve with a strong effect at the top dose; inconclusive means weaker partial or single-point curve; inactive means no accepted curve; further: series up to 57 µM; many of its hits are not listed in these tables
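Purified S. mansoni TGR and Prx2 in pH 7.4 phosphate buffer with EDTA and Tween-20 were preincubated with compounds for 15 min. Further NADPH/GSH was added, then a 2.5 mM H2O2 aliquot initiated turnover, followed kinetically by NADPH fluorescence.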
Starred values were filed as active, the others as inactive; ? = inconclusive; nt = no result given; & = joins results of further samples; [ ] = dose if it differs, or a comment. Potency means the concentration at half of the fitted maximal effect. This is a subset; count on the stated rates, not on these rows.

SMILES	Anthrax LT inh	SmPrx2 inh
CN1CCN(CC(O)COCc2ccc3c(c2)OCO3)CC1 (centres undefined)	-7.7%	>57
CCn1c(CSc2nnc(-c3cccnc3)n2-c2ccccc2C)nc2cc(C(=O)O)ccc21	2.3%	>57
O=C(CN(c1cccc(C(F)(F)F)c1)S(=O)(=O)c1ccccc1)N1CCOCC1	-2.8%	>57
O=C(Cn1nnc(-c2ccccc2Cl)n1)N1CCN(S(=O)(=O)c2ccc(Cl)cc2)CC1	-2.2%	>57
c1ccc(CCNc2ccc3nncn3n2)cc1	-13.2%	>57
CC(=O)Nc1ccc2c(c1)n(C)c(=O)n2C	10.1%	>57
CCCCC(=O)Nc1ccc2oc(-c3cccnc3)nc2c1	12.6%	>57
CC(=O)N1[C@H](Cc2ccccc2)C=C[C@]1(C)C(=O)NCCN1CCOCC1	-29.7%	nt
CN1CCCCc2c1nc1c(c2N)CCCC1	2.0%	>57
CCOc1ccccc1NC(=O)C1CCCN(C(=O)NCc2ccccc2)C1 (centres undefined)	1.8%	>57
CCOc1ccc(NC(=O)CN2CCN(CC(=O)Nc3cc(OC)cc(OC)c3)CC2)cc1	9.6%	>57
CC1CCN(c2nc3c(c(=O)[nH]c(=O)n3C)n2CCCc2ccccc2)CC1	?	>57
COc1nc(-c2ccccc2)ccc1-c1noc(-c2ccccc2)n1	?	>57
Cc1ccccc1Cn1ccc(NC(=O)c2cnn3c(C(F)(F)F)cc(-c4ccco4)nc23)n1	-8.8%	>57
CCOC(=O)c1sc(N)c(C#N)c1COC(=O)CNC(=O)c1ccccc1	-0.7%	>57
C=CCn1c(SCC(=O)Nc2ccc3c(c2)OCO3)nc2ccccc2c1=O	nt	>57
COc1ccc(OC)c(-c2cc(C(=O)Nc3c(C)nn(Cc4ccc(Cl)cc4)c3C)no2)c1	-15.5%	>57
Cn1c(CCNC(=O)c2ccco2)nc2cc(NS(=O)(=O)c3ccc(Cl)cc3)ccc21	nt	>57
CN(C)c1nc(N)nc(Nc2ccccc2C#N)n1	-9.8%	>57
N#Cc1ccc(OCC(=O)N2CCN(S(=O)(=O)c3cccs3)CC2)cc1	?	>57
CC(N=c1ccccn1C(=O)Nc1ccc(F)cc1)c1ccco1 (centres undefined)	0.5%	>57
CCOc1ccc(OCC)c(NC(=O)C2CCCN(S(=O)(=O)c3cccs3)C2)c1 (centres undefined)	-19.1%	>57
Brc1ccccc1-c1nnc(-c2cccnc2)o1	-7.7%	>57
CC(=O)N(CCCc1ccc(C(C)(C)C)cc1)CCCN(C)C	-19.5%	nt
CSc1nc2ccccc2n1CC(=O)N1CCCCC1	3.9%	>57
C=Cn1c(C(=O)O)cc(CC)c1-c1ccccc1	6.6%	>57
Nc1c(S(N)(=O)=O)cc(S(N)(=O)=O)cc1S(N)(=O)=O	?	>57
Cc1cccc(NC(=O)CSc2nnc([C@@H]3CCCN3C(=O)OC(C)(C)C)o2)c1C	-4.0%	nt
CCOC(=O)N1CCN(C(=O)c2ccc(CN(c3ccc(C)c(C)c3)S(C)(=O)=O)cc2)CC1	?	>57
Cc1sc2nc(SCC(=O)OC(C)C)n(C)c(=O)c2c1C	26.5%	>57
O=C(OCCN1C(=O)c2ccccc2C1=O)c1cnccn1	5.7%	>57
COc1ccccc1CCNS(=O)(=O)c1c(C)n(C)c(=O)n(C)c1=O	-14.2%	>57
CCOC(=O)c1oc2cc(OCC(N)=O)ccc2c(=O)c1-c1ccc(OC)c(OC)c1	5.2%	>57
O=C(NCCc1ccc(Cl)cc1)C1CCN(S(=O)(=O)N2CCC3(CC2)OCCO3)CC1	11.9%	>57
CC(=O)Nc1nonc1NC(=O)CSc1nc2ccccc2o1	15.0%	>57
CCCn1c(=O)c2ccccc2n2c(SCCOc3ccc(C)cc3)nnc12	-4.4%	>57
O=C1c2cccc3cccc(c23)C(=O)N1c1nncs1	-0.3%	nt
CCC(CC)n1[nH]c(=O)c2c(C)cc(C)nc21	?	>57
CCOC(=O)c1[nH]c(C)c(C(=O)NCC2CCCO2)c1C (centres undefined)	2.0%	>57
Cc1c(N=c2c(=O)c3ccccc3c2=O)c(=O)n(-c2ccccc2)n1C	20.5%	?

Quoted from above (two entries):
SMILES	Anthrax LT inh	SmPrx2 inh
CCOC(=O)c1[nH]c(C)c(C(=O)NCC2CCCO2)c1C (centres undefined)	2.0%	>57
Cc1c(N=c2c(=O)c3ccccc3c2=O)c(=O)n(-c2ccccc2)n1C	20.5%	?

The results go on:
SMILES	Anthrax LT inh	SmPrx2 inh
COc1ccc(C(=O)N2CCC(C(=O)Nc3ccccc3OC)CC2)cc1	18.1%	>57
COc1ccc(-c2cc(C(=O)Nc3cc(C)n(Cc4ccc(Cl)cc4)n3)no2)cc1OC	-19.4%	>57
COC(=O)C1=C(C)N(c2ccc(S(N)(=O)=O)cc2)C(=O)C1	2.2%	nt
CCC1CCCCN1S(=O)(=O)c1ccc(C(=O)Nc2nnc(-c3cccs3)o2)cc1 (centres undefined)	?	>57
CCOc1ccc(OCc2cccc(C(=O)N3CCOCC3)c2)cc1	3.4%	>57
CN1CCc2c(sc3c2c(=O)n(-c2ccccc2)c2nnc(SCc4ccccc4F)n32)C1	0.6%	>57
N[C@@](CC(=O)O)(Cc1ccccc1)C(=O)O	-1.8%[8 µM]	>57
COc1ccc(CN2C(=O)CCC2(C)C(=O)NC2CCCC2)c(OC)c1 (centres undefined)	-2.7%	>57
Cn1c(/C(C#N)=C(\O)c2ccc(S(=O)(=O)N3CCCCC3)cc2)nc2ccccc21	-7.8%	>57
O=C1Nc2ccccc2C12Nc1ccccc1-c1nc3ccccc3n12 (centres undefined)	-11.5%	>57
O=c1cc(N2CCOCC2)[nH]c(=O)n1-c1ccc(Br)cc1	-5.9%	>57
O=C(O)CCC(=O)N1CCC(C(=O)c2cccc(Cl)c2)CC1	-16.7%	>57
CCSC1(SCC)N=C(N)C2(C#N)C(c3ccccc3)NC(C)=C(C)C12C#N (centres undefined)	-4.6%	>57
COC(=O)c1sc(NC(=O)CSc2nnnn2-c2ccc(C)cc2C)nc1C	-13.3%	>57
Nc1nc(-c2cc(-c3cccc4ccccc34)nc(N)n2)cc(-c2cccc3ccccc23)n1	-16.6%[8 µM]	>57
O=C(C(Cc1ccccc1)NS(=O)(=O)c1cccc2nsnc12)N1CCC2(CC1)OCCO2 (centres undefined)	-9.9%	>57
O=C(Cn1nc(C(=O)O)c2ccccc2c1=O)NCCC1=CCCCC1	4.5%	>57
CC(=O)OCc1cc2cccc(C)c2[nH]c1=O	nt	>57
O=C(CCCCn1c(=O)[nH]c2ccccc2c1=O)NCCc1c[nH]c2ccccc12	?	>57
Cn1c(=O)c2c(nc(N3CCCCCC3)n2CC(O)COc2ccc(Cl)cc2)n(C)c1=O (centres undefined)	-6.8%	>57

Fetched one by one from above:
SMILES	Anthrax LT inh	SmPrx2 inh
COc1ccc(C(=O)N2CCC(C(=O)Nc3ccccc3OC)CC2)cc1	18.1%	>57
O=C(C(Cc1ccccc1)NS(=O)(=O)c1cccc2nsnc12)N1CCC2(CC1)OCCO2 (centres undefined)	-9.9%	>57
Nc1nc(-c2cc(-c3cccc4ccccc34)nc(N)n2)cc(-c2cccc3ccccc23)n1	-16.6%[8 µM]	>57
COc1ccc(-c2cc(C(=O)Nc3cc(C)n(Cc4ccc(Cl)cc4)n3)no2)cc1OC	-19.4%	>57

Remaining list, next part
SMILES	Anthrax LT inh	SmPrx2 inh
Cc1c(C(=O)OC2CCCCC2)sc2nc[nH]c(=O)c12	-6.8%	>57
CC1(c2ccccc2)NC(=O)N(CCOc2ccccc2)C1=O (centres undefined)	8.4%	>57
Cc1cccc(-c2nnc(SCc3cc(=O)[nH]c4ccccc34)n2C)c1	-9.4%	>57
Cc1cc(COc2ccccc2OCc2cc(C)no2)on1	-25.5%	>57
CCSc1ccccc1C(=O)n1nnc2ccccc21	?	nt
CCCC(C)(COC(N)=O)COC(N)=O	-7.9%	nt
CCOC(=O)N1CCN(c2ccc(C(=O)c3ccccc3)cc2F)CC1	-16.6%	>57
COc1ccc(CNc2ncncc2-c2ccoc2)c(OC)c1	1.8%	>57
CCOC(=O)c1[nH]c(C)c(C(=O)NCCCOC(C)C)c1C	2.7%	>57
O=C(c1noc2c1CCc1ccccc1-2)N1CCCc2ccccc21	?	>57
CCOc1ccc(CNc2ccc3c(c2)nc(C)n3C)cc1	2.9%	>57
CCSc1nc2ccccc2n1CC(=O)N1CCOCC1	7.0%	nt
CN1[C@@H]2CC[C@H]1CC(NC(=O)c1nn(C)c3ccccc13)C2 (some centres undefined)	11.7%	>57
C/C(=C\c1cc(C(=O)O)c(C)o1)CO	11.0%	>57
CC1=CCC2C(=O)N(c3cccc(C(=O)N(C)C4CCCCC4)c3)C(=O)C2C1 (centres undefined)	-2.4%	nt
O=C(NCCCN1CCOCC1)c1ccc(CS(=O)(=O)Cc2ccc(Cl)cc2)o1	nt	>57
C=CC[C@@H]1C=C[C@H](O/N=C\[C@@H](C)[C@H](OCc2ccccc2)C(C)C)[C@H](CO)O1	0.0%[1.6 µM]	nt
CC(C)CC(OC(=O)c1cccs1)C(=O)NCC1CCCO1 (centres undefined)	?	>57
CCOC(=O)c1oc2ccc(Br)cc2c1NC(=O)CN1CCN(C)CC1	-0.7%	>57
O=C(CCn1c(=O)sc2ccccc21)NCc1ccc2c(c1)OCO2	9.0%	>57

Among those listed so far, 6 have a COOH group.
SMILES	Anthrax LT inh	SmPrx2 inh
CCn1c(CSc2nnc(-c3cccnc3)n2-c2ccccc2C)nc2cc(C(=O)O)ccc21	2.3%	>57
C=Cn1c(C(=O)O)cc(CC)c1-c1ccccc1	6.6%	>57
N[C@@](CC(=O)O)(Cc1ccccc1)C(=O)O	-1.8%[8 µM]	>57
O=C(O)CCC(=O)N1CCC(C(=O)c2cccc(Cl)c2)CC1	-16.7%	>57
O=C(Cn1nc(C(=O)O)c2ccccc2c1=O)NCCC1=CCCCC1	4.5%	>57
C/C(=C\c1cc(C(=O)O)c(C)o1)CO	11.0%	>57

Following part:
SMILES	Anthrax LT inh	SmPrx2 inh
O=C1N=C(N2CCOCC2)SC1=C1CCCCC1	-19.6%	nt
Cc1ccc(C2(C)NC(=O)N(Cc3c(C)noc3C)C2=O)cc1 (centres undefined)	-0.9%	>57
CCCCC(CC)C(=O)NCc1ccccc1OC (centres undefined)	-16.6%	>57
COc1c(Cl)ccc(Cl)c1C(=O)OCC(=O)O	-4.0%	nt
Cc1ccc(OCC(=O)N2CCN(C(=O)Cc3ccccc3)CC2)cc1	6.7%	>57
Cn1c(=O)c(-c2ccc(F)cc2)nc2cncnc21	5.4%	>57
CC(=O)Nc1ccc(-n2c(C)nc(=O)c(-c3ccccc3)c2C)cc1	?	>57
COc1ccc(CCNC(=O)C2CC(=O)N(C3CCCC3)C2)cc1OC (centres undefined)	9.2%	>57
CC(C)(C)NC[C@@H](O)c1ccc(O)c(CO)n1	7.7%[8 µM]	>57
COc1ccccc1CN1CCCC2(CCN(C(=O)c3cccc(F)c3)CC2)C1	?	>57
Cc1ccccc1NC(=O)c1cc(N)ccc1N1CCCCC1	2.6%	>57
Cn1c(=O)cc(SCC(=O)N2CCCC2)c2cc(Cl)ccc21	5.0%	>57
CC(C)C(NC(=O)OCc1ccccc1)C(=O)OCC(=O)N1C(C)CCCC1C (centres undefined)	5.0%	>57
COc1cccc(-c2cc(=O)c3ccccc3o2)c1N	?	>57&>57
C=CCN1C(c2ccccc2)=CS/C1=C(\C#N)c1nnc2n1CCCCC2	6.8%	>57
Cn1cc(Cl)c(C(=O)N2CCN(c3ncccn3)CC2)n1	-12.2%	>57
COc1ccc(CC(=O)c2ccccc2C(=O)O)cc1	4.6%	>57
CCOC(=O)N1CCN(C(=O)COc2ccc(S(=O)(=O)NC(C)C)cc2)CC1	-1.2%	>57
Cc1nc(C2CC(=O)OC23CCCCC3)cs1 (centres undefined)	-6.1%	nt
CC1CCC(C(C)C)C(OC(=O)COC(=O)c2cccn2C)C1 (centres undefined)	?	>57
COc1cccc(N(C(=O)CNC(=O)c2ccco2)C(C(=O)NC2CCCCC2)c2ccncc2)c1 (centres undefined)	3.0%	>57
O=C(CSc1nnc2scc(-c3ccccc3)n12)Nc1nsc(-c2ccc(Cl)cc2)n1	2.9%	>57
COc1cc(NC(=O)c2cc(OC)c(OC)c(OC)c2)c(OC)cc1NC(=O)CN1CCCCC1	?	>57
Cc1coc(C)c1C(=O)CC1(O)C(=O)Nc2cc(Cl)cc(Cl)c21 (centres undefined)	-3.5%	>57
S=c1nc(-c2nc(=S)[nH]c3c2CCCCCCCCCC3)c2c([nH]1)CCCCCCCCCC2	-6.9%[8 µM]	>57
COc1ccccc1-c1coc2c(CN3CCN(CCO)CC3)c(O)ccc2c1=O	-2.7%	>57
Cn1c2c(c(=O)n(C)c1=O)C(c1ccc(Br)cc1)Nc1ccccc1O2 (centres undefined)	-12.0%	>57
Cn1c(=O)n(C)c2cc(C(=O)O)ccc21	-5.1%	>57
O=C1C[C@@H](c2ccc(O)cc2)Oc2cc(O)cc(O)c21	?	>57&>57
O=C(NC1CCCCC1)c1nc2c(nnn2Cc2ccccc2Cl)c(=O)[nH]1	?	>57
Cn1nc(CC(=O)Nc2ccc(N3CCN(C(=O)OC(C)(C)C)CC3)cc2)c2ccccc2c1=O	2.6%	>57
O=C(CSc1nc2c(cnn2-c2ccc(F)cc2)c(=O)[nH]1)N1CCOCC1	12.0%	>57
Cc1noc(C)c1C(=O)N1CCN(CCc2ccccc2)CC1	-0.2%	>57
O=C1CC(c2ccccc2)CC(O)=C1C=NCCN1CCN(C(=O)Nc2ccccc2)CC1 (centres undefined)	?	>57

Screens as filed in PubChem.
